gsp ag = agonists of gsp mutant (McCune-Albright syndrome). gsp mutant cells, cAMP HTRF, 30 min; control for the full effect not named in the record. Potency, µM (highest dose often 76.9 µM), for the others: top-dose activation (cAMP increase), hits mostly activators. 340,000 compounds, 0.13% hits. AID 624287; active = well fitted activation curve with a large enough effect; inconclusive = small, poorly fitted or top-dose-only effect, or another doubt; inactive = no such curve, though single readings can be large or run the other way; cell line not stated here;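 also: phosphodiesterase inhibitor Ro 20-1724 added with compounds to block cAMP breakdown; potency is read from the fitted curve at half-maximal effect; nearly all actives have a fitted effect of over 60% in size; about a fifth of the inactives were tested at one dose only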
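Cells in DMEM/10% FBS with G418 were pretreated with compounds in DMSO plus […] (300 uM stock) for 30 min at 37C. cAMP was measured by HTRF (cAMP-d2 plus anti-cAMP antibody-K) after 30 min at room temperature.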
CtBP-E1A inh = CtBP/E1A binding inhibition; AID 651724; AlphaScreen GST-E1A/His-CtBP binding, 1536-well; stronger effect = lower value; control for the full effect not named in the record; 340,000 compounds, 0.49% hits; activity change, % (concentration not given with the values); in the data active means activity change below about -65%; inconclusive means about -30% to -65%; inactive means above about -30%; also: % is scaled to controls: 0 for no effect and ±100 for the full control effect
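AlphaScreen with 125 nM GST-E1A and 125 nM His-CtBP (5X stocks) in Tris pH 8.0, 300 mM NaCl, BSA, Tween 20, TCEP. Compounds preincubated 2 h at 37 deg C, then glutathione donor/nickel acceptor beads added for 1 h at 37 deg C in dark.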
Six1-Eya2 blk = Six1/Eya2 interaction inhibition. Q15475+O00167. AlphaScreen GST-Six1/His-Eya2 binding, biochemical; stronger effect = lower value; control for the full effect not named in the record. activity change, % (no concentration beside the values). 360,000 compounds, 0.56% hits. AID 651725; in the data active = activity change below about -65%; inconclusive = about -30% to -65%; inactive = above about -30%; also: % is scaled to controls: 0 for no effect and ±100 for the full control effect
Target sequence (O00167 whole entry, looked up): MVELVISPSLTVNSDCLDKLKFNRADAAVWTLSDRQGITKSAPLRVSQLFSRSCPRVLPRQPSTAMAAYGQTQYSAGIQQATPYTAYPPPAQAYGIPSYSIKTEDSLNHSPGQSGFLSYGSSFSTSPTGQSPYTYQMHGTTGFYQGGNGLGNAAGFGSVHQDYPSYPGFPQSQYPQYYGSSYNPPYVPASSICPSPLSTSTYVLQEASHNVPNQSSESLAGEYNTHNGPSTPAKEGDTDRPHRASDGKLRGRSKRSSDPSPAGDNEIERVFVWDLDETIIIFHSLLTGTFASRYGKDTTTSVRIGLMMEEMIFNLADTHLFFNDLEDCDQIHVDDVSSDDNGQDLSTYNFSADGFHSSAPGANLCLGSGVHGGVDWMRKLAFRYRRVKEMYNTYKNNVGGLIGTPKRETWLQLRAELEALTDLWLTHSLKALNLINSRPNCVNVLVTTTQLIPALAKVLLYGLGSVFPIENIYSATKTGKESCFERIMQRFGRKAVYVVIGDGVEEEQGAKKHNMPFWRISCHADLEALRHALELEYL
Target sequence (Q15475 whole entry, looked up): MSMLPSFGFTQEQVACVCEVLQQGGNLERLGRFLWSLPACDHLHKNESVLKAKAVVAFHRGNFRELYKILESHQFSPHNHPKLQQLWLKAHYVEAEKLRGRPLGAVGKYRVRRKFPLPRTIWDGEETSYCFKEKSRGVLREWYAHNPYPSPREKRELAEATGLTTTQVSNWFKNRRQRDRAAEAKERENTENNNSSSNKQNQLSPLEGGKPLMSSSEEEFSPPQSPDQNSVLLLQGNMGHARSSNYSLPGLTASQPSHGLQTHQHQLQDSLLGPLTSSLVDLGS
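GST-Six1 + His-Eya2 (5X stock: 250/500 nM); Tris pH 8.0, 300 mM NaCl, 0.05% BSA, 0.02% Tween 20; GSH donor/Ni acceptor beads; 1 h 37 °C dark; AlphaScreen readout.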
gsp antag = antagonizes gsp, the McCune-Albright syndrome mutation | gsp-mutant cells, cAMP HTRF, 30 min; control for the full effect not named in the record | AID 624288 | Potency, µM (series often up to 76.9 µM), for inactives: at the highest dose activity change, negative = inhibition, usual class: inhibitors | 340,000 compounds, 0.4% hits; active = falling curve of any shape with a large fitted effect; inconclusive = falling curve, mostly with a smaller effect; inactive = flat or rising curve; cell line not stated here;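 also: intracellular cAMP measured with PDE inhibitor Ro 20-1724 present during compound exposure; potency is read from the fitted curve at half-maximal effect; % is scaled to controls: 0 for no effect and ±100 for the full control effect; nearly all actives have a fitted effect of over 65% in size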
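HTRF cAMP read-out (cAMP-d2 plus anti-cAMP antibody-K in lysis buffer, 30 min RT). Before lysis, cells are exposed to compounds with […] for 30 min at 37C in DPBS containing Ca/Mg, BSA and Tween 20.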
D2 potentiator = positive allosteric modulators of human D2 dopamine receptor | DiscoveRx D2 beta-arrestin cells, luminescence, 90 min; 100% = 57 uM dopamine signal | potentiation, % (no concentration beside the values) | 360,000 compounds, 0.23% hits | AID 624464; active = potentiation of 50% or more; inconclusive = 30% to 50%; inactive = 30% or less;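 also: compound concentration not given in the record; tested on top of an EC20 dose of dopamine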
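PathHunter beta-arrestin assay in DiscoveRx D2 cells. Compounds were added with an EC20 of dopamine (50 nM final) for 90 min at 37 deg C. Luminescence was read 1 h after detection reagent, with 57 uM dopamine as the EC100 control.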
D2 ag = activates the human D2 dopamine receptor; P14416; DiscoveRx PathHunter D2 beta-arrestin, luminescence, 90 min; 100% = 57 uM dopamine signal; activation, % (test concentration not listed); 360,000 compounds, 0.084% hits; in the data active = activation above about 40%; inconclusive = about 15% to 40%; inactive = below about 15%; also: compound concentration not given in the record; the text of the record calls up to 30% inactive
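DiscoveRx PathHunter D2 beta-arrestin cells (2,100/well) attached overnight, then compound-stimulated 90 min at 37 C in HBSS/10 mM HEPES/0.1% Tween-20 buffer; beta-galactosidase complementation read by luminescence after 1 h at ambient temperature. Dopamine 57 uM final (EC100) as control.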
* = called active by the depositor; ? = inconclusive; / = no result given; [ ] = dose if it differs, or a comment.

# | Compound | gsp ag | CtBP-E1A inh | Six1-Eya2 blk
1 | CC(C)c1ccc(S(=O)(=O)N2CCN(C(=O)C3CC3C)CC2)cc1 (centres undefined) | -4%[15.4 µM] | 4 | 3
2 | CCOC(=O)/C(=C\c1cn(C)c2ccccc12)[N+](=O)[O-] | 4% | -4 | -8
3 | Cc1ccccc1NS(=O)(=O)c1ccc2[nH]c(=O)[nH]c2c1 | -6%[15.4 µM] | / | -1
4 | COc1ccc(S(=O)(=O)Nc2cccnc2)cc1 | 17% | 9 | 4
5 | Cc1cc(-c2cc(C(=O)Nc3ccccc3)on2)nc(NCC2CC2)n1 | / | -21 | -2
6 | CC(C)(O)/C=C/C(=O)[C@](C)(O)C1[C@H](O)C[C@@]2(C)C3CC=C4C(C=C(O[C@@H]5O[C@H](CO)[C@@H](O)[C@H](O)[C@H]5O)C(=O)C4(C)C)[C@]3(C)C(=O)C[C@]12C (some centres undefined) | / | -2 | 8
7 | COc1ccc(OS(=O)(=O)Cc2ccccc2)cc1 | 7% | 12 | 4
8 | COC(C/C=C/[C@H](O)[C@H](C)OCc1ccccc1)OC | / | 6 | 7
9 | Cc1ccc(/C=N/NC(=O)c2nnn(-c3nonc3N)c2CN(C)C)s1 | 24% | -18 | 2
10 | O=C(Nc1ccc2c(c1)OCCO2)C1CCCN1S(=O)(=O)c1cccc2cccnc12 (centres undefined) | -25% | 0 | -2
11 | CCN(C(=S)Nc1ccccc1F)C1CCCCC1 | -5% | 1 | 3
12 | CN(C)C(=O)c1ccc(NC(=O)c2cccc(S(=O)(=O)N3CCCCCC3)c2)cc1 | 11% | / | -10

# | gsp antag | D2 potentiator | D2 ag
1 | 2% | 12 | 0.9
2 | -13% | 30 | 1.3
3 | 9% | -1 | 8.2
4 | -28% | 2 | -0.4
5 | -3% | -4 | 1.8
6 | 7% | 1 | -0.4
7 | 5% | -5 | 4.2
8 | 11% | -1 | 0.4
9 | 5% | -3 | -2.9
10 | -1% | 2 | 0.5
11 | 6% | -23 | -0.4
12 | -9% | -8 | -4.3

New compounds follow
# | Compound | gsp ag | CtBP-E1A inh | Six1-Eya2 blk
13 | CC(C)[C@H](NC(=O)c1ccc(C(C)(C)C)cc1)C(=O)N1CCN(Cc2ccc3c(c2)OCO3)CC1 | 5% | -4 | 2
14 | Cn1c(=O)cc(N2CCCCC2)[nH]c1=O | 4% | -13 | 7
15 | Cc1ccc(C(=O)OCC(=O)NC2CCCCCC2)c(C)c1 | -2%[15.4 µM] | -4 | 3
16 | COc1c2ccc(C(=O)NCCCCc3ccccc3)cc2nn1C | / | 7 | 5
17 | N#CC1=C(N)OC2=C(C(=O)CCC2)C1c1cc2c(cc1Br)OCO2 (centres undefined) | 11% | / | 5
18 | O=C(NCC1CCCO1)c1cc2ccccc2o1 (centres undefined) | -35%[inhibitor] | -12 | -6
19 | Cc1nn(-c2nc3ccccc3n2Cc2ccccc2)c2c1C(=O)CC(C)(C)C2 | ? | 1 | 13
20 | CCC(Sc1ncccc1C(=O)OC(C)C)C(=O)N1CCOCC1 (centres undefined) | -24% | 1 | 1
21 | Cc1c(NC(=O)COC(=O)COc2ccc(Nc3ccccc3)cc2)c(=O)n(-c2ccccc2)n1C | 4%[15.4 µM] | -3 | -2
22 | CCOc1c2ccc(C(=O)NCc3cc(C(F)(F)F)cc(C(F)(F)F)c3)cc2nn1C | -15% | 7 | -2
23 | COC(=O)C1=C(C)Nc2nnnn2C1c1ccco1 (centres undefined) | 28% | 6 | 3
24 | O=C(Nc1ccc(Cl)cc1)c1ccc2c(=O)n3c(nc2c1)CCCCC3 | -44%[inhibitor] | -2 | -9

# | gsp antag | D2 potentiator | D2 ag
13 | -21% | 3 | ?
14 | 5% | -1 | 2.5
15 | -8% | 1 | 0.0
16 | 7% | -2 | -1.4
17 | -8% | -23 | -3.8
18 | 8% | -4 | -0.3
19 | -17% | -2 | -0.8
20 | 7% | 6 | -1.1
21 | -18% | 8 | 3.3
22 | -2% | -8 | 0.5
23 | 12% | -25 | -1.4
24 | -30% | 0 | 3.1

The results go on:
# | Compound | gsp ag | CtBP-E1A inh | Six1-Eya2 blk
25 | Cc1cccc2c(C(=O)O)c3c(nc12)CCCCC3 | 22% | 3 | -6
26 | CN(CCOc1ccccc1)CC(O)COc1ccccc1 (centres undefined) | 4%[15.4 µM] | 3 | 7
27 | C[C@]12c3[nH]c4ccc(Cl)cc4c3CCN1C(=O)[C@@H](CC(=O)NCc1ccco1)C[C@@H]2C(=O)N1CCCCC1 | / | -9 | -18
28 | O=C(CCC(=O)N1CCSc2ccccc21)Nc1cccc(F)c1 | -11% | 6 | 1
29 | Cc1cc(C)c2c(-n3cccc3)nn(CC#N)c2n1 | 5% | 0 | -1
30 | CCOC(=O)C1CCCN(S(=O)(=O)c2cnc(Cl)c(Br)c2)C1 (centres undefined) | 9% | / | 7
31 | CCCOc1ccc(-c2c(C(=O)N/N=C/c3cccnc3)nnn2-c2nonc2N)cc1 | 6% | / | -3
32 | CO/N=C(\c1ccccc1)c1cccnc1 | 2% | 12 | -1
33 | Cc1nc(N2CCN(C(=O)c3ccco3)CC2)c2c3c(sc2n1)CC(C)CC3 (centres undefined) | -5% | / | -14
34 | COc1cc(-c2cc(C(=O)Nc3ccncc3)c3ccccc3n2)cc(OC)c1OC | -36%[inhibitor] | 2 | 5
35 | O=C(NNC(=O)c1cccnc1SCc1cccc([N+](=O)[O-])c1)c1ccc(F)cc1 | -7% | -3 | -4
36 | CCC(OC(=O)CNS(=O)(=O)c1ccccc1)C(=O)c1ccccc1 (centres undefined) | -22% | -9 | -4

# | gsp antag | D2 potentiator | D2 ag
25 | 12% | 16 | 0.1
26 | 6% | -16 | -4.2
27 | -18% | / | -2.8
28 | -2% | -4 | -1.2
29 | 13% | -11 | 2.5
30 | ? | -4 | 4.0
31 | 0% | -4 | 4.4
32 | 10% | -6 | 0.6
33 | 14µM* | -12 | 6.3
34 | 2% | 5 | 3.9
35 | -10% | -22 | -5.4
36 | 2% | -4 | 0.2

Next part:
# | Compound | gsp ag | CtBP-E1A inh | Six1-Eya2 blk
37 | CC(C(=O)NCc1cccs1)n1cccc1 (centres undefined) | -22% | -3 | -4
38 | Cc1cc(C)n(CC2CC(=O)N(c3ccc(F)c(Cl)c3)C2=O)n1 (centres undefined) | 6% | 4 | 6
39 | O=C(c1ccccc1)N1CCN(C(=O)C23CC4CC(CC(C4)C2)C3)CC1 | 16% | -5 | 6
40 | Cc1cccc(C)c1NC(=O)CSc1nnc(C2CCCCC2)o1 | 16%[15.4 µM] | 4 | 6
41 | COc1ccc(NC(=O)Nc2cccc3c2O[C@H](CN(C)S(=O)(=O)c2ccc(F)cc2)[C@@H](C)CN([C@H](C)CO)C3=O)cc1 | / | -5 | -3
42 | COc1ccccc1OCCn1cc(C(=O)C(C)C)c2ccccc21 | -43%[inhibitor] | 11 | 7
43 | Cc1cccc(CSc2ccc(-c3ccco3)nn2)c1 | ? | 5 | 4
44 | OCC1(Cc2ccccc2)CCCN(Cc2cnn(-c3ccccc3)c2)C1 (centres undefined) | 11% | -2 | -2
45 | COc1ccccc1N1CCN(C(=O)c2ccc(C(C)(C)C)cc2)CC1 | 27% | -11 | -21
46 | Cc1ccc(S(=O)(=O)c2nnn3c2nc(NC2CCN(Cc4ccccc4)CC2)c2ccccc23)cc1C | 19% | / | -10
47 | CCCCn1c(N)c(N(CCOC)C(=O)c2ccc(Cl)c(S(=O)(=O)N3CCCCC3)c2)c(=O)[nH]c1=O | -2% | 3 | 7
48 | CN1CCN(S(=O)(=O)c2cccc(C(=O)Oc3ccccc3Cl)c2)CC1 | ? | -4 | ?

# | gsp antag | D2 potentiator | D2 ag
37 | 11% | -9 | -2.7
38 | -3% | -13 | -1.8
39 | -12% | -6 | 2.4
40 | 5% | -2 | -5.6
41 | -11% | -3 | 0.7
42 | 1% | 2 | 2.1
43 | 7% | 8 | 2.8
44 | 7% | -19 | -3.1
45 | -8% | -28 | -1.5
46 | -7% | -19 | -3.4
47 | -8% | 2 | -1.0
48 | 7% | -4 | -1.0

Screen by screen, from the results shown:
gsp antag for entries 15–21: -8%, 7%, -8%, 8%, -17%, 7%, -18%

Single records, as listed above:
Entry for Cc1cccc(CSc2ccc(-c3ccco3)nn2)c1 = gsp ag: ?; CtBP-E1A inh: 5; Six1-Eya2 blk: 4; gsp antag: 7%; D2 potentiator: 8; D2 ag: 2.8
Entry for COc1ccc(NC(=O)Nc2cccc3c2O[C@H](CN(C)S(=O)(=O)c2ccc(F)cc2)[C@@H](C)CN([C@H](C)CO)C3=O)cc1 = gsp ag: /; CtBP-E1A inh: -5; Six1-Eya2 blk: -3; gsp antag: -11%; D2 potentiator: -3; D2 ag: 0.7
Entry for Cc1cccc(C)c1NC(=O)CSc1nnc(C2CCCCC2)o1 = gsp ag: 16%[15.4 µM]; CtBP-E1A inh: 4; Six1-Eya2 blk: 6; gsp antag: 5%; D2 potentiator: -2; D2 ag: -5.6

Later entries
# | Compound | gsp ag | CtBP-E1A inh | Six1-Eya2 blk
49 | OC1(c2ccc(Br)cc2)CN(c2ccccc2)C2=[N+]1CCS2 (centres undefined) | -2%[15.4 µM] | -13 | -10
50 | CCOC(=O)N1CCN(C(=O)c2ccc3c(c2)N(CC)CCS3)CC1 | ? | 0 | -12
51 | C=CCOc1cccc(CNCCCN2CCOCC2)c1 | -13%[15.4 µM] | -14 | -6
52 | CCOC(=O)C1=C(C)NC(=O)N(C(C)=O)C1c1ccc(Cl)cc1 (centres undefined) | -35%[inhibitor] | 2 | -3
53 | CNC(=O)c1ccsc1NC(=O)CCS(=O)(=O)c1ccc(F)cc1 | -6% | -9 | 0
54 | CC(C)(C)Sc1ccc(/C=N/O)cc1[N+](=O)[O-] | 4%[15.4 µM] | -20 | ?
55 | COc1ccc(Oc2ccc(C(F)(F)F)cc2NC(=O)c2ccc(OC)cc2)cc1 | -36%[inhibitor] | -3 | 4
56 | COc1ccc2cc(C(=O)Nc3ccc(F)cc3)sc(=O)c2c1OC | -5% | -8 | -2

# | gsp antag | D2 potentiator | D2 ag
49 | -16% | -6 | -6.9
50 | -22% | 14 | 6.4
51 | 5% | -4 | -4.4
52 | -12% | -5 | -1.2
53 | -7% | -4 | -2.8
54 | 8% | 0 | -2.3
55 | -4% | -13 | -4.8
56 | -3% | -7 | -2.6

Numbers 49 through 51, reprinted for reference:
# | Compound | gsp ag | CtBP-E1A inh | Six1-Eya2 blk
49 | OC1(c2ccc(Br)cc2)CN(c2ccccc2)C2=[N+]1CCS2 (centres undefined) | -2%[15.4 µM] | -13 | -10
50 | CCOC(=O)N1CCN(C(=O)c2ccc3c(c2)N(CC)CCS3)CC1 | ? | 0 | -12
51 | C=CCOc1cccc(CNCCCN2CCOCC2)c1 | -13%[15.4 µM] | -14 | -6

# | gsp antag | D2 potentiator | D2 ag
49 | -16% | -6 | -6.9
50 | -22% | 14 | 6.4
51 | 5% | -4 | -4.4
